Source: PubChem
NPYLR7 agonist – agonists of mosquito NPYLR7 receptor, primary screen, cell-based, Aedes aegypti, calcium fluorescence, mosquito biting behavior; 0.15% of 270,000 active; activation, % at 10 µM; HEK293T NPYLR7/Galpha15, GCaMP6s calcium fluorescence; Aedes aegypti neuropeptide Y-like receptor 7 (NPYLR7); in the data active means activation above about 40%;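 further: 0% = vehicle and 100% = reference agonist at the receptor; some compounds past the cut are filed as inactive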
NPYLR7 agonist max-min – also measured in NPYLR7 agonist; calls as there; activation, %; measured here: Max-Min RFU normalised activation; some inactives read as strong as hits;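 span of the calcium signal over five minutes; 0% = vehicle and 100% = native peptide agonist; compound fluorescence can raise it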
The depositor's hits bear a star; & = joins results of further samples. An excerpt; rates above refer to the full screens.

SMILES	NPYLR7 agonist	NPYLR7 agonist max-min
CN(Cc1cc([N+](=O)[O-])ccc1Cl)C(=O)CCc1ncc(-c2ccc(F)cc2F)o1	3.4	4.1
O=C(NCCC12CC3CC(C1)CC(CCNC(=O)c1cccs1)(C3)C2)c1cccs1	-7.4	-6.6
COc1ccc(OC)c(/C=C2N=C(/C=C/c3ccc(Cl)cc3)OC/2=O)c1	-4.6	-3.0
Cc1noc(-c2ccc(C(C)(C)C)cc2)c1C(=O)NCc1ccc(C(F)(F)F)cc1	27.8	23.9
NC(=O)CCS(=O)(=O)CCN1CCN(CC(=O)Nc2ccc(OC(F)(F)F)cc2)CC1	2.8	10.1
Cc1cccc(-n2nc3c(c2NC(=O)C24CC5CC(CC(C5)C2)C4)CSC3)c1	-1.2	-4.6
COc1ccccc1-c1nc2ccc(C)cn2c1NC(=O)CC(C)(C)C	-7.2	-5.5
CN(C)c1ccc(N)cc1CN(Cc1ccc(F)cc1)C(=O)c1ccco1	-0.7	7.7
CCCn1c(C(Cl)=Cc2ccc(F)c(F)c2)nc2cc(S(=O)(=O)N3CCOCC3)ccc21	0.1	-0.1
COCCOC(=O)c1sc2nc(CN3CCOCC3)[nH]c(=O)c2c1C	6.5	9.2
Cc1cccc(C(=O)NC(C)c2cnc(-c3ccncc3)nc2C)n1 (stereo unspecified)	3.3	-2.9
O=C(c1cccc2ccccc12)C1CCCN(C(=O)CCc2ccccn2)C1 (stereo unspecified)	22.4	5.1
COc1cccc(NC(=O)N2CCC(CCc3ccc(-c4ccccc4)cc3)CC2)c1	2.1	13.2
Cc1cccc(NC(=O)N2CCN(C(c3ccccc3)c3ccc(Cl)cc3)CC2)c1 (stereo unspecified)	0.9	6.7
Cc1cc(C)nc(SCc2nnc(SC(C)C)n2C)n1	3.4	1.1
CC(=O)c1ccc(NC(=O)CCN2CCN(Cc3ccc(Cl)s3)CC2)cc1	2.8	-1.0
CSCCNC(=O)C1CCC(=O)N(CCCN2CCOCC2)C1 (stereo unspecified)	4.5	3.9
O=c1oc2ccccc2n1CCN1CCC(c2ccnc(-c3ccncc3)c2)C1 (stereo unspecified)	1.9	2.2
CCOc1cc(CN(CCc2ccccc2)CC2CCN(C)CC2)ccc1OC	6.3	4.6
Cc1cc(OC(=O)c2ccc(C)c([N+](=O)[O-])c2)c([N+](=O)[O-])c(=O)[nH]1	5.5	5.5
CC(=O)N1CC2(C)CN(C(C)=O)CC(C)(C1)C2O (stereo unspecified)	0.4	2.0
Cc1[nH]cnc1-c1nccn1CC(F)(F)F	6.5	2.6
CC1CN(S(=O)(=O)N2CCN(C(=O)CCc3cccs3)CC2)CC(C)O1 (stereo unspecified)	-3.2	-3.4
O=C(c1ccco1)N(Cc1cccc(OS(=O)(=O)c2ccc(F)cc2)c1)C1CC1	1.2	7.2
Cc1ncoc1C(=O)N1CCCC(CNC(=O)c2ccc(-c3ccccc3)cc2)C1 (stereo unspecified)	3.7&9.4	0.5&8.6
c1ccc2c(c1)nc(Nc1ccc3c(c1)OCCO3)c1nnnn12	-5.6	-7.2
CCOc1ccc(/C=C/c2onc(C)c2[N+](=O)[O-])cc1OCC	-5.0	-7.4
CCCC1(CCC)NC(=O)N(CC(=O)Nc2ccc(S(=O)(=O)NC(C)C)cc2)C1=O	-0.8	-4.8
O=C(CSc1nnc2scc(-c3ccccc3)n12)NCCc1ccccc1	-13.5	-18.4
Cc1nn(-c2nc3ccccc3[nH]2)c(N)c1N=Nc1ccc(S(N)(=O)=O)cc1	4.5	1.3
CC(=O)c1c(C)[nH]c(C(=O)NC2CCCCC2C)c1C (stereo unspecified)	13.9	7.0
O=C(Nc1ncn[nH]1)C1CCN(S(=O)(=O)c2cccc(OC(F)(F)F)c2)CC1	5.3	3.2
Cc1cc(C)n(-c2nc(N3CCOCC3)nc(C)c2[N+](=O)[O-])n1	8.9	2.5
Cc1cccn2c(=O)c3cc(C#N)c(=O)n(C(C)C)c3nc12	-0.2	7.8
O=C(Nc1cn[nH]c1)N1CCCCC1c1nc(-c2ncccn2)no1 (stereo unspecified)	1.6	1.0
CN1C(=S)N(C2CCCCC2)C(=O)/C1=C\c1ccncc1	-5.2	5.7
CC(C)(C)c1ccc(S(=O)(=O)NC(=O)C2(C)CCN2C(=O)Cc2cc(F)ccc2F)cc1 (stereo unspecified)	1.1	-0.2
CC(NS(=O)(=O)c1cccc(F)c1)c1ccc(Cl)s1 (stereo unspecified)	5.2&-8.2	1.5&-7.3
Cc1nc(N2CCN(CC(C)O)CC2)c2c3c(sc2n1)CCC3 (stereo unspecified)	7.4	1.5
CCC(C)NC(=O)Cn1nc2ccc(SCc3ccc(Cl)cc3)nn2c1=O (stereo unspecified)	3.4	2.1
COc1ccc2[nH]c(C)c(CC(=O)N(CCC#N)CC3CCCO3)c2c1 (stereo unspecified)	9.2	4.1
O=C(O)c1cc(-c2ccccn2)nc2ccc(Br)cc12	4.8	3.2
CCN1CCN(c2c(CN(CCOC)C(=O)C3CC3)c(C)nn2-c2ccccc2)CC1	-0.2	4.3
CC(=O)Nc1cccc(C(C)NC(=O)CCc2cccc(Cl)c2Cl)c1 (stereo unspecified)	5.2	3.4
CC1(C(=O)NS(=O)(=O)Cc2ccccc2C(F)(F)F)CCN1C(=O)C/C=C/c1ccccc1 (stereo unspecified)	3.8	1.5
O=C(O)CCCCCN1C(=O)/C(=C/c2cccc(Cl)c2)SC1=S	1.3	-4.2
CCCCc1nc2cc(C(=O)N[C@@H](Cc3ccccc3)C(=O)OC)ccc2o1	10.1	-0.1
Cc1nn(-c2cccc(F)c2)c(N2CCN(C(C)C)CC2)c1CN(C(=O)Nc1ccccc1F)C(C)C	20.0	19.7
FC(F)(F)c1cc(-c2cccs2)nc(N2CCCC2)n1	-3.1	-3.6
C=CCn1c(SCC(=O)NCc2ccccc2)nnc1-c1ccco1	7.9	7.8
Cc1ccc2nc(CNC(C)c3cccc(C(F)(F)F)c3)cc(=O)n2c1 (stereo unspecified)	12.2	7.9
CCN(CC)c1ccc(/C=N/n2nnnc2N)c(O)c1	-7.0	-15.2
O=C(NC(c1ccccc1)c1ccccc1)c1c(O)nc2sccn2c1=O	-2.4	4.0
COc1ccc(C(=O)N(CCCN(C)C)c2nc3c(F)cc(F)cc3s2)cc1OC	7.7	3.2
Cc1cccc(C(N)=O)c1NS(=O)(=O)C1CCCCC1O (stereo unspecified)	4.1	0.0
Cc1ccc(C(=O)N2C(C(=O)NCc3ccccn3)COC23CCN(C(=O)c2ccc4c(c2)OCO4)CC3)cc1 (stereo unspecified)	0.2	4.1
COc1cc(OC)cc(C(=O)N2CCN(c3nc(C)nc(C)c3Cc3ccccc3Cl)CC2)c1	1.1	7.3
CC1C(=O)N(c2ccc([N+](=O)[O-])cc2)CCN1C(=O)c1ccc(C(F)(F)F)cc1 (stereo unspecified)	-0.9	0.6
Cc1ccc(S(=O)(=O)N2CCCc3c(C(N)=O)cccc32)c(Cl)c1	5.8	3.4
COc1ccc(CCN(C)C2CCCN(C(=O)c3cc4ccccc4s3)C2)cc1OC (stereo unspecified)	3.0	-1.4

17 entries from above, as a markdown table:
| Compound | NPYLR7 agonist | NPYLR7 agonist max-min |
| --- | --- | --- |
| CC(=O)Nc1cccc(C(C)NC(=O)CCc2cccc(Cl)c2Cl)c1 (stereo unspecified) | 5.2 | 3.4 |
| CC1(C(=O)NS(=O)(=O)Cc2ccccc2C(F)(F)F)CCN1C(=O)C/C=C/c1ccccc1 (stereo unspecified) | 3.8 | 1.5 |
| O=C(O)CCCCCN1C(=O)/C(=C/c2cccc(Cl)c2)SC1=S | 1.3 | -4.2 |
| CCCCc1nc2cc(C(=O)N[C@@H](Cc3ccccc3)C(=O)OC)ccc2o1 | 10.1 | -0.1 |
| Cc1nn(-c2cccc(F)c2)c(N2CCN(C(C)C)CC2)c1CN(C(=O)Nc1ccccc1F)C(C)C | 20.0 | 19.7 |
| FC(F)(F)c1cc(-c2cccs2)nc(N2CCCC2)n1 | -3.1 | -3.6 |
| C=CCn1c(SCC(=O)NCc2ccccc2)nnc1-c1ccco1 | 7.9 | 7.8 |
| Cc1ccc2nc(CNC(C)c3cccc(C(F)(F)F)c3)cc(=O)n2c1 (stereo unspecified) | 12.2 | 7.9 |
| CCN(CC)c1ccc(/C=N/n2nnnc2N)c(O)c1 | -7.0 | -15.2 |
| O=C(NC(c1ccccc1)c1ccccc1)c1c(O)nc2sccn2c1=O | -2.4 | 4.0 |
| COc1ccc(C(=O)N(CCCN(C)C)c2nc3c(F)cc(F)cc3s2)cc1OC | 7.7 | 3.2 |
| Cc1cccc(C(N)=O)c1NS(=O)(=O)C1CCCCC1O (stereo unspecified) | 4.1 | 0.0 |
| Cc1ccc(C(=O)N2C(C(=O)NCc3ccccn3)COC23CCN(C(=O)c2ccc4c(c2)OCO4)CC3)cc1 (stereo unspecified) | 0.2 | 4.1 |
| COc1cc(OC)cc(C(=O)N2CCN(c3nc(C)nc(C)c3Cc3ccccc3Cl)CC2)c1 | 1.1 | 7.3 |
| CC1C(=O)N(c2ccc([N+](=O)[O-])cc2)CCN1C(=O)c1ccc(C(F)(F)F)cc1 (stereo unspecified) | -0.9 | 0.6 |
| Cc1ccc(S(=O)(=O)N2CCCc3c(C(N)=O)cccc32)c(Cl)c1 | 5.8 | 3.4 |
| COc1ccc(CCN(C)C2CCCN(C(=O)c3cc4ccccc4s3)C2)cc1OC (stereo unspecified) | 3.0 | -1.4 |

Next entries
SMILES	NPYLR7 agonist	NPYLR7 agonist max-min
Cc1nn(-c2ccccc2)c(C)c1NC(=O)CCN1CCCC1C1CCCCC1 (stereo unspecified)	-0.5	37.4
CC1CN(C(=O)CSc2nnc(Cc3cccs3)n2-c2ccccc2)CCO1 (stereo unspecified)	5.7	3.8
CC(C(=O)NC1CCCC1)N1CCN(c2cc(=O)[nH]nc2-c2ccccc2)CC1 (stereo unspecified)	-5.4	-8.1
CC(C)(C)c1nc(SCc2cn3cc(Cl)ccc3n2)n[nH]1	11.4	3.6
CC(C)[C@H](CO)Nc1nc(Nc2cc(N)cc(Cl)c2)c2ncn(C(C)C)c2n1	-16.0	-20.5
Cc1ccc(F)c(N2CCN(C(=O)c3ccc([N+](=O)[O-])cc3)C(C)C2=O)c1 (stereo unspecified)	27.7	39.2
CCN1/C(=C\C=C2/SC(=NCc3ccccc3)N(C)C2=O)Sc2ccccc21	-5.0	-8.7
COc1cc([C@@H]2c3cc4c(cc3[C@H](O)[C@H]3COC(=O)[C@H]23)OCO4)cc(OC)c1OC	-7.3&-7.0&-0.8	-10.0&-12.2&-1.7
Cc1nc2ccccn2c1Cn1nnnc1C(C)(C)C	3.7	2.3
NC(=O)CC(NC(=O)Nc1ccccc1)C1CCOCC1 (stereo unspecified)	-1.0	-0.6
O=C(c1cc(-n2cnnn2)ccc1O)N1CCO[C@@H]2CCCC[C@H]21	9.2	6.3
Cc1ccc(C)c(S(=O)(=O)N2CCN(C(=O)CN3C(=O)NC4(CCCCC4C)C3=O)CC2)c1 (stereo unspecified)	2.3	5.9
O=C(Nc1ccc(-n2cccn2)cc1)C1CCCCN1Cc1cccn1-c1ccccn1 (stereo unspecified)	8.3	7.2
COc1ccc(-n2c(SCc3ccc(C(=O)NCc4cccc(C(F)(F)F)c4)cc3)nnc2-c2ccco2)cc1	13.8	14.5
O=C(COc1ccccc1F)NNS(=O)(=O)c1cccc(Cl)c1	3.9	0.3
O=C(c1ccccc1NCc1ccccn1)N1CCC2(CCNCC2)CC1	3.5	0.8
Cc1cc(C(=O)N=c2sccn2C)c(C)n1-c1ccccn1	10.3	7.9
CN(CCNC(=O)C(F)(F)F)C(=O)Cc1ccccc1C(=O)Nc1ccc2c(c1)CCC2	5.8	8.3
CN(C)S(=O)(=O)c1ccc2c(c1)C(=NNc1ccccc1)c1cc(S(=O)(=O)N(C)C)ccc1-2	3.2	1.0
CC1(C)O[C@@H]2CC3C4C[C@H](F)C5=CC(=O)CC[C@]5(C)C4[C@@H](O)C[C@]3(C)[C@]2(C(=O)CO)O1 (stereo partly specified)	-8.7	-14.4
CC(=O)Nn1ccc2nc3nc(C)nn3c(-c3ccccc3)c2c1=O	6.7	7.7
Cc1oc(C)c(C(=O)N(C)CC(=O)N(C)C)c1C	-2.2	-6.0
O=C1COCc2ccc(-c3cc(F)cc(F)c3)cc2N1CC1CC1	7.6	7.1
Cc1cc(C)cc(NC(=O)N2CCN(CCCOCC(F)(F)F)CC2)c1	15.5	17.2
O=C(CSCC(=O)NC1CCC(c2ccccc2)CC1)Nc1ccc(F)cc1 (stereo unspecified)	2.7	-0.9
Cc1ccc2cc(CCNC(=O)C3CCCC3)c(=O)[nH]c2c1C	2.8	-1.2
Cc1n[nH]c(C)c1S(=O)(=O)N1CCC(C(=O)O)CC1	9.3	7.9
Cc1ccc(C)c(CNC(=O)C(C)(C)NC(=O)c2cccs2)c1	22.9	11.3
O=C(Cc1ccc([N+](=O)[O-])cc1)NCc1nnnn1-c1ccc(F)c(F)c1	0.8	-0.1
CCc1cc(Oc2ccc(C(C)=O)cc2)nc(SCc2ccc(F)c(F)c2)n1	2.3	12.1
COc1ccc(Cl)cc1Sc1ccccc1[N+](=O)[O-]	4.6	8.5
CC(C)=CC(=O)NC(c1ccc(F)cc1)c1ccc(SCc2ccccc2)cc1 (stereo unspecified)	0.2	-3.7
CCc1cccc(NC(=O)N(CCN2CCOCC2)CC(=O)N(Cc2ccc3c(c2)OCO3)Cc2ccco2)c1	7.2	6.8
Fc1cccc(F)c1CSc1nnc(-c2cc(-c3ccccc3)nc3ccccc23)n1CC1CCCO1 (stereo unspecified)	-5.5	-6.8
O=C(Nc1cccc(S(=O)(=O)N2CCCCC2)c1)c1cc[n+]([O-])cc1	-4.0	-4.5
O=[N+]([O-])c1cccc(-c2nc(/C=N\O)c3ccccn23)c1	-9.4	-16.7
S=c1[nH]nc(-c2c[nH]c3ccccc23)n1-c1ccc(Cl)cc1	1.0	3.5
N#CCCN(Cn1ccc(-c2ccccc2)n1)CC(F)(F)F	4.4	2.5
O=C(/C=C/c1ccc(N2CCC(c3ccccc3)=N2)cc1)c1ccccc1	-3.4	-5.4
COc1cc(-c2n[nH]c(=O)n2C2CCCC2)ccc1O	2.8	-1.2
C#Cc1cccc(NC(=O)c2cc3c(C)nn(C)c3s2)c1	12.8	11.2
Cn1cc(CN2CCN(c3cnccn3)CC2)c(-c2cccc(Cl)c2)n1	1.1	-2.9
